# Sa ugtP lethal = growth inhibition of S. aureus ugtP deletion strain. AID 1259309. 330,000 tested, 0.54% active. S. aureus RN4220 ugtP deletion, OD600 growth, 16 h; some inactives read as strong as hits. growth inhibition, % (no concentration beside the values);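 active = z-score under -3 and OD600 up to 0.15 on both plates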;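 also: plate controls were untreated wells for no effect and antibiotic for full effect; wells of about 80 µL received 100 nL stock; the first replicate is given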
# RN4220 kill = S. aureus RN4220 growth inhibition | OD600, 16 h | inhibition, % (concentration not given with the values) | 330,000 tested, 0.33% active;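 active = z-score of -3 or lower and OD600 up to 0.18 on both plates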;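 also: plate controls were untreated cells for no effect and reference antibiotic for full effect; stock transfer was 100 nL into about 80 µL; one replicate is shown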
# Autofluor counter = counter-screen for toxin protease inhibitors: compound fluorescence. compound autofluorescence counterscreen, microsphere flow cytometry; active compounds read high. fluorescence intensity (test concentration not listed). 360,000 tested, 3.1% active. AID 624483;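 active = at least 3 SD above the mean of all compounds, about 16000 in these data; inconclusive = too few beads counted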;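 also: 100 nL of 1 mM stock went into each well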
# BJeLR lethal = kills HRASV12-expressing BJeLR cells; AID 1554; 300,000 tested, 0.17% active; inhibition, % (no concentration beside the values); BJeLR (HRASV12) viability, CellTiter-Glo ATP luminescence, 48 h; reference of the scale not given here;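 active = replicate mean above 50%; inconclusive = above 50% but judged a plate artefact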;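 also: 50 nL library stock added to about 25 µL; numbers are from one replicate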
# PrP UTR inh = inhibition of PrP 5' UTR reporter expression. AID 488862. inhibition, % (test concentration not listed). cell-based PrP 5' UTR mRNA reporter, plate reader. 340,000 tested, 0.35% active;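 active = every replicate at 50% or more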;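 also: 0 = median of the neutral control wells; tested in H4 reporter cells; numbers are from one replicate; inactives centre near -14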
# Mtb hypoxia rep = Mtb hypoxia fluorescent reporter inhibition; M. tuberculosis hypoxia-regulated fluorescent reporter, fluorescence; fluorescence inhibition, % (test concentration not listed); 300,000 tested, 0.1% active;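 active = 35 to 45% if threefold the growth effect, above 45% if 1.5-fold the growth effect; inactive = the rest, general growth blockers included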;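 also: wells of about 50 µL received 100 nL stock; 0% = vehicle wells and 100% = reference inhibitor wells; whole bacteria with a GFP reporter of the hypoxia response; strong numbers were not always called active; many hits fall short of the cut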
# Mtb hypoxia rep growth = recorded beside Mtb hypoxia rep, whose call it bears; growth inhibition, %; measured here: M. tuberculosis growth (absorbance);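 0% = vehicle and 100% = reference antibiotic; read after six days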
# Active calls of the source: *; ? = inconclusive; / = not tested or not shown; & = joins results of further samples.
SMILES,Sa ugtP lethal,RN4220 kill,Autofluor counter,BJeLR lethal,PrP UTR inh,Mtb hypoxia rep,Mtb hypoxia rep growth
O=C(NNc1ncccc1-n1cccc1)c1ccc(Cl)cc1,2.5,3.1,4041,2.5,-3.0,-2.3,-0.7
CC(=NNC(=O)COc1ccc(C)cc1C(C)C)c1cc2ccccc2o1,-2.7,0.1,/,/,/,15.0,6.9
O=C1Nc2ccccc2C1=Nc1ccc(S(=O)(=O)Nc2nccs2)cc1,17.6,6.2,3255,-7.4,/,/,/
COc1ccccc1-c1nnc(SCc2nc3ccccc3s2)n1C,0.2,4.6,7727,2.5,/,1.3,1.6
O=C(CC1C(=O)NCCN1Cc1ccoc1)NCc1cccc(OC(F)(F)F)c1 (configuration not stated),2.9,5.8,4190,-4.2,-3.9,10.4,8.5
CCN(CC)c1ccc(/C=N/NC(=O)c2c(-c3ccccc3)noc2C)cc1,/,/,3562,-9.4,-23.7,/,/
O=C1CCCc2cc3c(ccc4ccccc43)cc21,-0.4,8.3,3965,/,-60.0,18.7,6.6
CC(C)c1ccc(C2=C(O)c3ccccc3C(=O)C2=O)cc1,-2.7,14.8,2089,-3.6,-19.5,8.4,10.9
CCc1ccc(CN2CCC(C(=O)Nc3ccc(-n4nc(C)cc4C)cc3)CC2)o1,3.6,-1.4,6102,3.5,-2.3,-7.0,4.3
COc1cc(NC(=O)CN2C(=O)C(c3ccccc3)=NC23CCCCCC3)cc(OC)c1,-24.2,0.0,1958,1.1,-12.8,6.7,4.0
COc1ccc(CCN2CC(C(=O)N(C)CC(=O)Nc3ccc(Cl)c(C(F)(F)F)c3)CC2=O)cc1OC (configuration not stated),-6.9,3.1,6635,/,-13.4,-1.6,5.4
CCc1cc2ccc(C)cc2nc1SCC(=O)Nc1cc(OC)c(OC)cc1C(=O)O,9.1,10.8,2052,6.3,-12.4,2.1,-3.1
COc1cc(CCC(=O)Oc2ccc(C(C)=O)cc2)cc(OC)c1OC,8.3,3.5,2457,7.6,-3.6,2.0,-1.2
Clc1ccc2c(c1)c1ccccc1n2CN1CCOCC1,6.3,-25.5,2347,-0.3,-13.0,/,/
Fc1ccccc1N1CCN(CC2CCCCC2)CC1,-1.3,-2.8,3573,-3.6,-15.1,-5.7,13.4

# Quoted from the listing:
# Under Autofluor counter, CCN(CC)c1ccc(/C=N/NC(=O)c2c(-c3ccccc3)noc2C)cc1 is entered as 3562
# Under RN4220 kill, CCc1cc2ccc(C)cc2nc1SCC(=O)Nc1cc(OC)c(OC)cc1C(=O)O is entered as 10.8

# (next part)
SMILES,Sa ugtP lethal,RN4220 kill,Autofluor counter,BJeLR lethal,PrP UTR inh,Mtb hypoxia rep,Mtb hypoxia rep growth
COc1cc2ccccc2cc1C(=O)Nc1cc(C)ccn1,-5.3,1.0,4269,8.0,-68.5,-3.7,2.0
COc1ccc(S(=O)(=O)N2CCN(c3ncccn3)CC2)cc1[N+](=O)[O-],1.4,-3.6,4678,2.9,-6.2,-3.4,-22.8
COc1ccc(OC)c(NC(=O)COC(=O)CCS(=O)(=O)c2ccc(Cl)cc2)c1,10.0,4.0,6581,/,-8.2,8.3,10.7
Cc1ncsc1C(=O)O,6.6,5.7,4470,-3.7,-13.5,-7.7,-4.0
O=C(O)CSc1ccccc1C(=O)O,1.5,-1.1,4344,-6.0,-3.6,9.0,6.5
C=CCNC(=O)CNS(=O)(=O)c1ccc(F)cc1,-6.9,-0.7,9801,1.1,-27.7,-4.2,0.5
Nc1nnnn1N=Cc1ccc(N2CCCCC2)c([N+](=O)[O-])c1,2.2,5.0,/,/,/,-4.0,-3.1
CCOC(=O)N1CCN(C(=O)/C(=C\c2cccs2)NC(=O)c2cccs2)CC1,-1.5,-1.1,2605,1.0,-23.4,12.9,5.9
CCN(Cc1ccccc1)C(=O)c1oc2ccc(C)cc2c1C,65.4,5.7,4290,-15.8,-19.9,18.9,3.2
Cc1cccc(Cn2c(N3CCN(C)CC3)nc3c2c(=O)n(C)c(=O)n3C)c1,-1.0,1.6,3832,-1.4,4.5,7.0,-3.0
Cc1nnc(SCC(=O)N2CCN(S(=O)(=O)c3ccccc3)CC2)s1,1.6,-0.1,4284,4.2,-25.3,-1.6,15.1
COCc1cc(C)nc(SCC[N+](C)(C)CC(=O)Nc2ccccc2)c1C#N,6.1,-2.9,4275,0.6,-16.8,4.7,7.6
CC1CCN(c2nc3nonc3nc2N2CCC(C)CC2)CC1,2.9,1.1,21212*,-0.2,-3.1,10.1,4.1
CC(C)(C)c1ccc(-c2n[nH]c(=S)n2-c2ccccc2)cc1,-0.2,-3.0,3827,9.2,-1.9,-9.0,4.2
O=C1NC[C@@H](Cc2cccc3ccccc23)N(CC2(c3ccccc3)CC2)C1=O,/,/,3021,-0.8,7.6,/,/
CCOC(=O)c1ccoc1CN1CCN(S(=O)(=O)c2ccc(C)c(C)c2)CC1,4.9,1.8,3762,/,-13.5,2.6,8.4
CCOC(=O)N1CCC(N(CCN(C)C)C(=S)Nc2ccccc2Cl)CC1,1.4,5.6,3968,0.3,-7.9,11.0,7.1
Cc1ccc(-c2cn3cccnc3n2)cc1NC(=O)c1cccs1,6.7,-2.0,2333,-0.2,-6.4,-1.6,-0.4
CN(CCN1CCOCC1)Cc1nc(-c2ccccc2)no1,10.8,2.7,4553,-5.7,-34.0,1.8,3.1
Cc1cc(=O)c(C(=O)OC(C)C(=O)NC(N)=O)nn1-c1ccc(Cl)cc1 (configuration not stated),-9.0,5.0,3904,-5.8,-21.1,15.1,-1.3
CC1(C)C2CC=C(C=NNC(=O)c3ccccc3Br)C1C2 (configuration not stated),12.1,9.8,/,/,/,-2.7,5.8
O=C(CCn1c(=O)oc2ccccc21)NCCCN1CCOCC1,1.3,3.8,3701,-2.8,-18.1,5.2,9.6
Cc1ccnc(NC(=O)CCC(=O)N(Cc2ccco2)C(C(=O)NC(C)C)c2ccc(F)cc2)c1 (configuration not stated),2.3,-2.4,3842,-2.0,2.3,-9.2,-6.8
O=C(Cc1ccc([N+](=O)[O-])cc1)Nc1ccc2c(c1)CCC2,6.9,-1.5,5952,-5.5,-10.3,-8.9,-1.3
Cn1c(C(=O)NCc2cccs2)cc2c(=O)n(C)c3ccccc3c21,4.4,-0.1,4336,-16.0,-4.4,/,/
COc1ccccc1NC(=O)N1CCC(c2nnc(SCC(N)=O)n2C)CC1,4.1,3.4,4556,-11.9,-3.8,4.7,8.6
CCCS(=O)(=O)N1CCC(C(=O)NCCCN(CC)c2cccc(C)c2)CC1,-1.7,-9.0,2884,/,-9.7,17.0,6.6
COc1ccc(-n2cnnc2SCc2ncc(-c3ccccc3)o2)cc1,-5.7,2.3,3371,5.2,-13.5,-4.5,9.3
CCOC(=O)C1C2COc3ccc(Br)cc3C2N2C(=O)N(c3ccc(F)cc3)C(=O)[C@]12C (some centres not stated),4.8&-9.7,-2.1&1.9,/,/,/,18.7&-1.8,4.5&10.3
CCOc1ccc(Cc2nnc(N)s2)cc1OCC,2.5,-1.3,5006,2.9,-7.4,/,/

# Grouped by structure, those above containing a thiophene ring, fused or not.
SMILES,Sa ugtP lethal,RN4220 kill,Autofluor counter,BJeLR lethal,PrP UTR inh,Mtb hypoxia rep,Mtb hypoxia rep growth
CCOC(=O)N1CCN(C(=O)/C(=C\c2cccs2)NC(=O)c2cccs2)CC1,-1.5,-1.1,2605,1.0,-23.4,12.9,5.9
Cc1ccc(-c2cn3cccnc3n2)cc1NC(=O)c1cccs1,6.7,-2.0,2333,-0.2,-6.4,-1.6,-0.4
Cn1c(C(=O)NCc2cccs2)cc2c(=O)n(C)c3ccccc3c21,4.4,-0.1,4336,-16.0,-4.4,/,/

# Going on with the list.
SMILES,Sa ugtP lethal,RN4220 kill,Autofluor counter,BJeLR lethal,PrP UTR inh,Mtb hypoxia rep,Mtb hypoxia rep growth
COc1ccc(N(C(=O)Cn2nnc3ccccc32)C(C(=O)NCc2ccco2)c2ccc(C)o2)cc1 (configuration not stated),0.6,-0.3,3851,1.6,-6.0,/,/
CCc1noc(C)c1C(=O)Nc1nc(-c2ccc(NC(C)=O)cc2)cs1,3.8,3.6,5252,1.4,-3.4,2.6,5.4
O=S(=O)(c1ccc(Cl)cc1)N1CCN(c2nc(-c3cccs3)nc3ccccc23)CC1,2.2,-1.1,2702,-17.0,-6.1,16.6,4.9
CN(C)C=NC(=O)c1ccc(N2CCN(c3ncc(C(F)(F)F)cc3Cl)CC2)cc1,9.0,-10.2,2709,5.5,-6.8,22.9,5.2
Cc1ccc(NC(=O)c2nn(C34CC5CC(CC(C5)C3)C4)cc2[N+](=O)[O-])cc1,-14.8,5.1,11387,12.4,-26.4,4.6,2.8
CC(=O)c1ccc(N2CCN(S(=O)(=O)c3ccccc3)CC2)c(F)c1,9.7,6.6,4678,1.5,-10.0,5.5,-0.8
CCOc1ccccc1NC(=O)COC(=O)CN1C(=O)NC(C)(C)C1=O,9.6,2.8,4570,/,-5.8,7.4,2.5
Cc1c(Cl)ccc2c(C(=O)NCCN3CCCCC3)cc(-c3ccccn3)nc12,3.8,-4.8,4026,11.8,-7.4,19.6,6.3
O=C1Nc2ccc(Br)cc2C(c2ccccc2Cl)=NC1O (configuration not stated),-5.8,1.0,5611,-7.0,-23.7,/,/
COc1ccc(-c2c(NC(=O)c3ccco3)oc3c(C)cccc3c2=O)cc1,13.5,3.9,4023,-2.6,-18.2,6.0,2.9
COc1cccc(CNC(=O)Cn2c(=O)n(CCC(=O)N3CCCCC3)c(=O)c3sccc32)c1,0.1,-2.0,6949,5.7,8.8,11.3,1.5
Cc1onc(-c2ccccc2)c1C(=O)Nc1ccc(Cl)c(S(=O)(=O)N2CCOCC2)c1,1.0,-2.1,3975,/,-22.5,11.5,5.8
COc1ccccc1N1CC(C(=O)Nc2ccc(S(=O)(=O)N3CCOCC3)cc2)CC1=O (configuration not stated),4.9,3.1,2975,7.0,-30.7,/,/
CCOc1ccc(C2/C(=C(\O)c3ccc4c(c3)OCCO4)C(=O)C(=O)N2Cc2cccnc2)cc1OCC (configuration not stated),3.0,1.1,5895,-9.5,-23.1,-1.7,-0.4
O=C(C1=CC(C2CCCCC2)CC(OCCCCO)O1)N1CCOCC1 (configuration not stated),6.2,8.2,/,/,/,0.0,-3.9
COC(=O)c1ccc(CN2CCc3ccc(NC(=O)c4ccncc4)cc3C2)cc1,1.9,-1.1,5947,-0.5,-0.9,-2.2,9.2
COc1ccc(NC(=O)CC(C)=NNC(=O)c2cnccn2)cc1Cl,4.1,10.7,/,/,/,-2.0,-5.0
CCOC(=O)N1CCC(N2Cc3cccc(C(=O)N4CCN(C5CCCCC5)CC4)c3C2=O)CC1,-1.8,-5.5,6612,13.8,-20.3,5.9,5.7
Cc1ccccc1OCC(=O)NCCC1=CCCCC1,/,/,2111,3.1,-0.8,/,/
Cc1n[nH]c(=S)n(/N=C/c2ccccn2)c1=O,/,/,3018,-7.6,-5.6,/,/
Cc1cc(C(=O)Nc2ccccc2[N+](=O)[O-])cs1,-3.9,7.8,6980,4.4,-6.6,-0.3,0.5
Cc1cc(NC(=O)c2cc(S(=O)(=O)N3CCCCC3)ccc2C)n(-c2ccccn2)n1,-1.3,-2.6,4214,/,-22.2,/,/
CCC(c1nnc(SCC(=O)N(C)c2ccccc2)n1Cc1ccccc1)N(C)C (configuration not stated),3.7,0.0,5387,-13.5,-22.3,9.2,1.5
O=C(NCCc1ccccc1)c1ccccc1Cl,13.6,3.8,4036,-8.4,47.6,5.8,3.7
COc1ccc(CN(C#N)c2nc(SC)nc(N(C)C)n2)cc1,0.9,3.4,2719,/,-6.5,/,/
CC12CCC(C/C1=N\OC(=O)c1c(F)cccc1F)C2(C)C (configuration not stated),/,/,5958,-4.3,-25.7,/,/
CCOC(=O)C1C(c2ccc(O)c(OCC)c2)NC(=S)NC1(O)C(F)(F)F (configuration not stated),7.2,2.1,3629,-1.3,-11.4,/,/
CSc1nc(-c2ccccc2)[nH]c(=S)c1C(C)=O,-9.6,-9.2,3643,-2.7,-11.6,/,/
Cc1cc(C)n(CC(O)Cn2c3ccccc3c3ccccc32)n1 (configuration not stated),-21.1,-5.5,?,-5.6,-8.6,20.1,9.4
Cc1cc2oc3ccc(NCCCN4CCOCC4)cc3c(=O)c2cc1C,1.5,3.1,4806,8.2,-18.8,21.0,17.9
CC(C)NC(=O)CN1CCN(C(=O)CCl)CC1,4.3,2.9,4672,0.2,-10.3,10.7,3.0
COc1ccc(CN2C(CC(=O)O)c3cc(F)ccc3S2(=O)=O)cc1 (configuration not stated),-1.3,4.3,/,/,/,14.0,11.9
COc1ccc(-c2nn(-c3ccccc3)cc2/C=N/Nc2ccc(Cl)c(C(=O)O)c2)cc1OC,/,/,5254,-4.7,-20.1,/,/
